From PubChem BioAssay
Vaccinia Venus: vaccinia inhibition (Venus reporter); Potency, µM (series often up to 36.5 µM), for the others: at the highest dose activity change, negative = inhibition, hits mostly inhibitors; hit rate 0.46% among 330,000; Vaccinia virus Venus reporter expression, fluorescence; active means well fitted inhibition curve with a large enough effect; inconclusive means small, poorly fitted or top-dose-only effect; inactive means no such curve, though single readings can be large or run the other way; tested in A549 cells; further: nearly all actives have a fitted effect of over 30% in size; inactives centre near -10
Vaccinia mCherry: inhibitors of vaccinia virus infection (mCherry reporter signal). Vaccinia virus mCherry reporter infection, fluorescence; about a quarter of the inactives have no number. Potency, µM (doses to about 36.5 µM), without a hit: at the top dose activity change, negative = inhibition, hits mostly inhibitors. hit rate 0.63% among 310,000; active = well fitted inhibition curve with a large enough effect; inconclusive = small, poorly fitted or top-dose-only effect; inactive = no such curve, though single readings can be large or run the other way; tested in A549 cells; further: nearly all actives have a fitted effect of over 35% in size; inactives centre near -10
* hit, by the source's call; i = inactive; u = inconclusive; x = not tested or not shown; [ ] = dose if it differs, or a comment. On the % scale 0 is the no-effect control and ±100 the full control effect; potency means the concentration at half of the fitted maximal effect. Outcome played no part in choosing rows; overall some 0.86% were active at least once.

Each structure is followed by: Vaccinia Venus, Vaccinia mCherry
1. COc1ccc(C)cc1NC(=O)CN(c1ccccc1F)S(C)(=O)=O
→ -9%, -21%
2. CCOC(=O)c1cc2c(=O)n3ccccc3nc2n(Cc2ccco2)c1=NC(=O)c1ccccc1Br
→ -26%, u
3. COc1ccc(C2=CSC3=NCCN23)cc1F
→ -5%, x
4. COc1ccc2oc(=O)c(C(=O)Nc3cccc(C(=O)O)c3)cc2c1
→ 10%, -2%
5. CC(C)c1ccc(S(=O)(=O)NCc2ccc3c(c2)CCN3C(=O)c2ccccc2)cc1
→ -18%, -14%
6. CCNC(=S)N1CCn2c(nc3ccccc32)C1
→ -8%, -5%
7. CCCCn1c(N)c(N(CCOC)C(=O)COC(=O)C(C)Oc2ccc(Cl)cc2)c(=O)[nH]c1=O (stereo not drawn)
→ -5%, -12%
8. CN(Cc1cn(C)nc1-c1ccccc1F)CC1CCN(Cc2ccccc2)CC1
→ -14%[7.34 µM], -9%[7.34 µM]
9. CNC(=O)C1CCC(Cn2c(=O)c3sccc3n(CC(=O)N3CCCC(C)C3)c2=O)CC1 (stereo not drawn)
→ -8%, -2%
10. CC(=O)c1cc(C#N)c(N2CCCC2)nc1C
→ -2%, 0%
11. Cc1nc2cc(NC(=O)N3CC4(C)CC3CC(C)(C)C4)ccc2n1C (stereo not drawn)
→ -16%, -23%
12. Cc1ccc(/C=N\NC(=O)CNC(=O)C23CC4CC(CC(C4)C2)C3)o1
→ -4%, -16%
13. CCCNC(=O)C1CCC(Cn2c(=O)c3sccc3n(CC(=O)Nc3ccccc3C)c2=O)CC1 (stereo not drawn)
→ -5%, 2%
14. Cc1ccc(-c2cc(N)n(Cc3ccc(Cl)cc3)n2)cc1
→ u, x
15. CCCCn1c(CNC(C)=O)nc2ccccc21
→ 9%, -17%
16. COc1ccc(NC(=O)CN2C(=O)C(C)(C)c3cc(S(=O)(=O)N4CCCCC4)ccc32)cc1Cl
→ -14%, i
17. Cc1cc(NC(=O)CSCC(=O)OCc2nnc(-c3ccc(F)cc3)o2)no1
→ 3%, -14%
18. N#Cc1c(-c2cccs2)nc(SCC(=O)c2ccc(Br)cc2)[nH]c1=O
→ 9%, -6%
19. O=C(NNC(=O)c1cc(O)c(O)c(O)c1)NC1CCCCC1
→ -2%, -6%
20. O=C(CC12CC3CC(CC(Br)(C3)C1)C2)NCc1ccccc1
→ -2%, i
21. CC1(C(=O)NCc2ccc3c(c2)OCO3)CCN1C(=O)CCc1ccc(Cl)cc1Cl (stereo not drawn)
→ -14%, 13%
22. COc1ccc(CNC(=O)CN2C(=O)CSc3ccc(S(=O)(=O)N4CCC(C)CC4)cc32)cc1
→ -15%, -20%
23. CCCCC[C@H]1CCCCC[C@H](O)C[C@H](O)[C@@H](O)/C=C/C(=O)O1
→ -11%, -15%
24. Cc1cc(NC(=O)CSc2nnc(C)c(=O)n2N)no1
→ -4%, i
25. Clc1ccc(CO/N=C2\CCCc3nonc32)c(Cl)c1
→ -5%, -29%
26. CN(Cc1ccccc1)C(=O)CN1CCN(S(=O)(=O)c2ccccc2F)CC1
→ -10%, 0%
27. O=C(Cc1ccccc1)Nc1c(C(=O)N2CCOCC2)cnn1-c1ccccc1
→ 0%, i
28. CCC(CC)NCC(O)COc1ccc(Br)cc1 (stereo not drawn)
→ -8%, i
29. CCOc1ccc(NC(=O)COc2ccc(S(=O)(=O)N3CCCC3)cc2)cc1
→ -10%, i
30. COc1ccc(-n2c(SCC(=O)N3CCOCC3)nc3ccccc3c2=O)cc1
→ -15%, i

Complete entries, quoted from the list. Screens in order: Vaccinia Venus	Vaccinia mCherry
CCCCC[C@H]1CCCCC[C@H](O)C[C@H](O)[C@@H](O)/C=C/C(=O)O1 in the list: -11%	-15%
N#Cc1c(-c2cccs2)nc(SCC(=O)c2ccc(Br)cc2)[nH]c1=O in the list: 9%	-6%

Next part:
Each structure is followed by: Vaccinia Venus, Vaccinia mCherry
31. Cc1cc(C)c(S(=O)(=O)NCC2CCC(C(=O)NCCCN3CCOCC3)CC2)c(C)c1 (stereo not drawn)
→ -27%, -2%
32. CNC(=O)CCn1nc(-c2ccc(Cl)cc2)c2ccccc2c1=O
→ -20%, x
33. COc1ccccc1NC(=O)c1c(NC(=O)c2ccccc2Cl)sc2c1CCC2
→ -4%, -7%
34. O=C1OCCOC2CCCc3oc(C4=CCCCC4)c1c32 (stereo not drawn)
→ 2%, 5%
35. CC(NC(=S)NC(=O)c1cccs1)c1ccccc1 (stereo not drawn)
→ -12%, i
36. Cc1cccc(NC(=O)CSCC(=O)Nc2cccc3ncccc23)c1
→ -17%, i
37. Cc1ccc(N(CC(=O)NC2CCC(C)CC2)S(=O)(=O)c2cccnc2)cc1 (stereo not drawn)
→ -6%, -9%
38. Cc1[nH]c2ccccc2c1CC#N
→ -14%, -1%
39. COc1ccc(CCNC(=O)C2CC(=O)N(CCc3ccc(C)cc3)C2)cc1OC (stereo not drawn)
→ -16%, i
40. Cc1cccc(C(=O)N[C@H](C(=O)Nc2ccc(C)c(S(=O)(=O)N3CCOCC3)c2)C(C)C)c1
→ -17%, i
41. O=C(NCc1ccccn1)C1CCCN(S(=O)(=O)c2ccc(Br)cc2)C1 (stereo not drawn)
→ -13%, x
42. Clc1ccc(-c2csc(-c3ccncc3)n2)cc1
→ -11%, i
43. COc1ccc(N2CCN(C(=O)CN3C(=O)COc4ccc(S(=O)(=O)N5CCC(C)CC5)cc43)CC2)cc1
→ -3%, -1%
44. CCn1c(CNc2cccc(Cl)c2)nnc1SCc1ccccc1
→ -13%, -17%
45. Cc1ccc(C(C)C)c(OCCCNCc2cccnc2)c1
→ -13%, i
46. COc1ccc(C(=O)NCc2ccc(Cl)c(Cl)c2)cc1OC
→ u, u
47. COc1ccc(/C=C2/N=C(c3cccs3)OC2=O)cc1OC(C)C
→ -1%, i
48. Cc1ccc(Cn2c(=O)c3ccccc3n3nc(C)cc23)cc1
→ 1%, -7%
49. CCOc1ccc(NC(=O)CCc2c(C)nc3nc(-c4cc(OC)cc(OC)c4)nn3c2C)cc1
→ -9%, -9%
50. c1ccc(Oc2nc(-c3ccccn3)nc3ccccc23)cc1
→ u, u
51. Cc1ccc(SCCC(=O)Nc2nccs2)cc1
→ 0%, i
52. CCOc1ccc(-c2nc3c(c(SCC(=O)N4CCCCC4)n2)Cc2cc(C)ccc2O3)cc1
→ -14%, -15%
53. COc1cc(CC(=O)NC(c2ccccc2)c2ccccc2)cc(OC)c1OC
→ -5%, -12%
54. CC1(C)Cc2c(sc(NC(=O)c3ccc(C(=O)c4ccccc4)cc3)c2C(N)=O)C(C)(C)N1
→ u, u
55. CCN(C(=O)COC(=O)c1ccco1)c1c(N)n(Cc2ccccc2)c(=O)[nH]c1=O
→ -7%, i
56. COc1ccc(CNC(=O)N2CCN(S(=O)(=O)c3ccccc3F)CC2)cc1
→ -11%, 0%
57. Cc1cc(=O)[nH]c(-n2ncc(C#N)c2N)n1
→ 0%, -10%
58. Nc1cccc2cccnc12
→ -15%, u
59. Cc1ccccc1C(=O)NCCN1CCC(n2c(=O)[nH]c3ccccc32)CC1
→ -10%, -8%
60. CC(NC(=O)c1ccc(F)cc1F)C1CC2CCC1C2 (stereo not drawn)
→ -4%, i
61. COc1ccc(C(=O)NC[C@H]2O[C@@H](n3cnc4c(N)ncnc43)[C@H](O)[C@@H]2O)cc1OC
→ 1%, 17%
62. CC1CCN(C(=O)C2CCN(S(=O)(=O)c3cccs3)CC2)CC1
→ -9%, -15%
63. NC(=O)Cn1cnc2nc3n(c2c1=O)CCC3
→ -1%, 5%
64. CCOC(=O)CN1C(=O)S/C(=C/c2ccco2)C1=O
→ -13%, -20%
65. C=CCOc1ccc(Br)cc1CNC(C)(C)C
→ 6%, -5%
66. O=C(NCCc1cccc(C(F)(F)F)c1)C1CCC(=O)N(Cc2ccc(Cl)cc2)C1 (stereo not drawn)
→ -28%, -16%
67. CC(C)(C)NC(=O)C(c1ccc(C#N)cc1)n1c(=O)c(-c2ccco2)nc2ccccc21 (stereo not drawn)
→ 4%, 13%
68. N/C(=N\N=C/c1ccc(Br)cc1)N/N=C\c1ccc(Br)cc1
→ -15%, i
69. CCCCNC(=O)CSc1nc2ccccc2n1S(=O)(=O)c1ccc(Cl)cc1
→ 8%, i
70. O=C(NCC1(N2CCCCC2)CCCCC1)c1ccc(NS(=O)(=O)c2ccccc2)cc1
→ -12%, -15%
71. S=C(NCCc1ccccc1)NCc1cccc(Cl)c1
→ -10%, -16%
72. CCc1nnc(NS(=O)(=O)c2ccc(NCc3cc(Br)ccc3O)cc2)s1
→ -12%, i
73. CCCn1c2ccccc2c2cnn(CC(=O)NC3CCC(C)CC3)c(=O)c21 (stereo not drawn)
→ -2%, -12%
74. CC(=O)Cn1c(CN2CCCCC2)nc2ccccc2c1=O
→ -4%, -8%
75. CCOC(=O)c1oc2ccc(Cl)cc2c1NC(C)=O
→ -7%, -12%
76. Cc1ccc(-n2c(SCC(=O)N3CCOCC3)nc(O)cc2=O)cc1
→ 0%, -14%
77. CCOC(=O)Cc1cc(=O)n2[nH]c(C)c(-c3ccc(Cl)cc3)c2n1
→ -30%, -14%
78. CCOc1ccc(S(=O)(=O)N2CCOCC2)cc1NC(=O)CN1C(=O)NC(C)(c2ccc(C)cc2)C1=O (stereo not drawn)
→ -4%, -19%
79. CN1CCN(c2ccc(NC(=O)c3ccccc3Br)cc2)CC1
→ -19%, x
80. COc1cc2c(cc1O)[C@@H]1Cc3cc(OC)c(OC)cc3C(C2)N1C
→ -1%, -1%
81. O=C(/C=C/c1ccco1)NC(=S)Nc1cccc([N+](=O)[O-])c1
→ u, u
82. C[C@@]12C(=O)Nc3cc(F)c(F)cc3C(=O)N1[C@H]1c3ccccc3OC[C@@H]1[C@@H]2c1ccccc1
→ u, -6%
83. CCc1ccc(Oc2nc([N+](=O)[O-])nn2C)cc1
→ -4%, 4%
84. COc1ccc2nc(NC(=O)C3CC(=O)N(c4ccc5c(c4)OCCO5)C3)sc2c1 (stereo not drawn)
→ -24%, u
85. COC(=O)c1cc(NC(=O)CC2SC(=Nc3ccccc3)N(CCc3c[nH]c4ccccc34)C2=O)cc(C(=O)OC)c1 (stereo not drawn)
→ u, -13%
86. Cc1nc2sc(C(c3ccco3)N3CCN(c4cccc(Cl)c4)CC3)c(O)n2n1 (stereo not drawn)
→ -16%, -18%
87. Cc1noc(C)c1COC(=O)CCc1nc2ccccc2s1
→ -6%, -4%
88. COc1ccc(C(=O)Nc2c(N)nc(SCC(=O)N3CCCCCC3)[nH]c2=O)cc1OC
→ -1%, i
89. COc1ccc(OC)c(CCNC(=O)Cn2cccc2C(=O)c2ccccc2C)c1
→ -4%, 0%
90. CSCCC(NC(=O)c1ccc([N+](=O)[O-])cc1Cl)C(=O)OCC(=O)C12CC3CC(CC(C3)C1)C2 (stereo not drawn)
→ -5%, -6%

Remaining list, next part:
Each structure is followed by: Vaccinia Venus, Vaccinia mCherry
91. c1ccc(-n2nnc(-c3nccs3)n2)cc1
→ 3%, i
92. Cc1ccc(/C=C2/Sc3ccccc3N(CC(=O)NCCCOC(C)C)C2=O)cc1
→ -13%, i
93. CC(C)(C)C(=O)Nc1ccccc1C(=O)OCc1cc(=O)n2ccsc2n1
→ -1%, -4%
94. Cc1n[nH]c(C)c1S(=O)(=O)N1CCCC(C(=O)NCC2COc3ccccc3O2)C1 (stereo not drawn)
→ -17%, i
95. O=S(=O)(Oc1ccc(Cl)cc1)c1cccc2cccnc12
→ -11%, -12%
96. CCCc1cc(=O)oc2c(C)c3occ(C)c3cc12
→ -10%, -11%
97. CCO[C@H]1OC(C(=O)NCc2ccccc2)=C[C@@H](c2ccc(C(F)(F)F)cc2)[C@@H]1CCCO
→ u, i
98. COc1ccc2oc(C(=O)Nc3nc4ccc(S(C)(=O)=O)cc4s3)c(C)c2c1
→ -10%, -10%
99. CCCc1c(C(=O)N/N=C/c2cccs2)nnn1-c1nonc1N
→ 5%[7.34 µM], -5%[7.34 µM]
100. Cc1cc(NC(=O)CSc2nnc(COc3ccccc3)o2)no1
→ -12%, x
101. CCCCOc1ccc(-c2nn(-c3ccccc3)cc2C2NC(=O)NC(C)=C2C(=O)OC)cc1 (stereo not drawn)
→ -19%, u
102. CCOC(=O)Nc1nn(-c2ccc(C)cc2)c(=O)c(C#N)c1C
→ -12%, -7%
103. O=C(c1ccco1)N1CCN(Cc2ccc(Cl)cc2)CC1
→ u, x
104. COc1ccc(OCC(=O)Nc2cc(-c3ccccc3F)nn2-c2ccccc2)cc1
→ -29%, u
105. CN(C)C(=O)C(OC(=O)c1ccc2ccccc2n1)c1ccccc1 (stereo not drawn)
→ 0%, -14%

Some of the entries so far, with bars between the fields.
No. | smiles | Vaccinia Venus | Vaccinia mCherry
105 | CN(C)C(=O)C(OC(=O)c1ccc2ccccc2n1)c1ccccc1 (stereo not drawn) | 0% | -14%
101 | CCCCOc1ccc(-c2nn(-c3ccccc3)cc2C2NC(=O)NC(C)=C2C(=O)OC)cc1 (stereo not drawn) | -19% | u
100 | Cc1cc(NC(=O)CSc2nnc(COc3ccccc3)o2)no1 | -12% | x
102 | CCOC(=O)Nc1nn(-c2ccc(C)cc2)c(=O)c(C#N)c1C | -12% | -7%
103 | O=C(c1ccco1)N1CCN(Cc2ccc(Cl)cc2)CC1 | u | x

Next compounds
Each structure is followed by: Vaccinia Venus, Vaccinia mCherry
106. Cc1ccn2c(=O)nc(SCC(=O)Nc3ccc4c(c3)OCO4)nc2c1
→ 7%, -8%
107. Cc1c(NC(=O)c2ccccc2NC(=O)c2ccccc2)cccc1C(=O)O
→ -20%, -14%
108. CSc1ccc(S(=O)(=O)N2CCC(C(=O)NCc3ccccn3)CC2)cc1
→ 9%, -19%
109. Cc1ccc(NC(=O)CSc2nc(N)c(-c3ccccc3)c(=O)[nH]2)cc1Cl
→ -7%, -3%
110. O=S(=O)(Nc1ccc(N2CCCCC2)cc1)c1ccccc1F
→ -12%, i
